3T3 cytotox = kills NIH 3T3 cells; NIH 3T3 viability, CellTiter-Glo ATP luminescence, 48-72 h; Potency, µM (top dose mostly 96.7 µM), without a hit: top-dose activity change, negative = cytotoxicity, usual class: inhibitors; actives 4.3% (n = 94,000); AID 1345082; note: potency is the fitted concentration of half-maximal effect; nearly all actives have a fitted effect of over 55% in size
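Cells were seeded at 400 per well, treated with pin-transferred compound, and kept 48 or 72 hr at 37 °C before CellTiter-Glo addition and luminescence imaging of cellular ATP.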
FLuc inh = inhibitors of firefly (Photinus pyralis) luciferase; actives 2.5% (n = 76,000); P08659; purified P. pyralis luciferase, luminescence, biochemical; Potency, µM (highest dose often 115 µM), inactives show at the top dose activity change, negative = inhibition, usual class: inhibitors; AID 1347043; note: potency is the fitted concentration of half-maximal effect; nearly all actives have a fitted effect of over 65% in size
Target sequence (P08659 whole entry, looked up): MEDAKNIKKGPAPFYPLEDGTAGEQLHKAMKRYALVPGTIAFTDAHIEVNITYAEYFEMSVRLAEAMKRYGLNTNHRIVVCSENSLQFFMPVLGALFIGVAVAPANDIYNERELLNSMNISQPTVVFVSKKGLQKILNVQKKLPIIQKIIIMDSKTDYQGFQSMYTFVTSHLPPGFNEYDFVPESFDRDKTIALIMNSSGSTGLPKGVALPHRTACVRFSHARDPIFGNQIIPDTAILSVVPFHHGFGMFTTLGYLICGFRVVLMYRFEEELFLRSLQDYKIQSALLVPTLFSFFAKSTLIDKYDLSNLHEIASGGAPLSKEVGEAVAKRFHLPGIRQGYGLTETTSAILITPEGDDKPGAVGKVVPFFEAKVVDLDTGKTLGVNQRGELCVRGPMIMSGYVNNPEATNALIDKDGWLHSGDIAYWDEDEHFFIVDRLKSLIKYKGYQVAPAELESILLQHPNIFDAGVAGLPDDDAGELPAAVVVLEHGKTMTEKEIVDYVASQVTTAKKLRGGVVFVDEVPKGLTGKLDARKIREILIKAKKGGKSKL
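Cell-free enzyme assay, 10nM P. pyralis luciferase, luciferin and ATP each at 10uM. Inhibition profiled over a 6-point titration, read as luminescence.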
IP6K1 inh = blocks human inositol hexakisphosphate kinase 1 | IP6K1 kinase, ADP-Glo luminescence, 2 h; stronger effect = lower value | activity change, % (series mostly up to about 58 µM) | actives 0.81% (n = 140,000) | AID 1645851; in the data active = activity change below about -25%
Target sequence (Q92551 whole entry, looked up): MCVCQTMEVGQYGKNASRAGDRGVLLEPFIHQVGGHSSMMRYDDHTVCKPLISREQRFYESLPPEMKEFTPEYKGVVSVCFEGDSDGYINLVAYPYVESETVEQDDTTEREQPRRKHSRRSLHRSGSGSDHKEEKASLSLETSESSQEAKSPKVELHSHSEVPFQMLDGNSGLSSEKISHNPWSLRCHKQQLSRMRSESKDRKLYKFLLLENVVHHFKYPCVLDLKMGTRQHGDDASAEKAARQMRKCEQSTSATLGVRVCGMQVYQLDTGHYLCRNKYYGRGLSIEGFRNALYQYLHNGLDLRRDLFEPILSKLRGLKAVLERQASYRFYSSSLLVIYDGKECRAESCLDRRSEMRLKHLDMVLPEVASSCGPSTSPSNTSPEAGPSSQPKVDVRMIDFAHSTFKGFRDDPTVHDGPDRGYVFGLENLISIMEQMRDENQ
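ADP-Glo luminescence measures ADP made by human IP6K1 during a 2 h RT reaction with ATP/IP6 (mix at 1.3 mM/130 uM); top library doses 57.5 and 19.1 uM final.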
SNCA expr inh = SNCA gene expression inhibition | Potency, µM (titrated, usually from 57.2 µM), without a hit: top-dose activity change, negative = inhibition, hits mostly inhibitors | HEK-293 SNCA-luciferase knock-in, luminescence, 24 h | actives 0.17% (n = 140,000);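 note: potency is the fitted concentration of half-maximal effect; plate controls were DMSO cells for no effect and cell-free wells for full effect; nearly all actives have a fitted effect of over 45% in size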
HEK293 viab = reduces viability of HEK-293 SNCA reporter cells. HEK-293-SNCA-luc viability, GF-AFC fluorescence, 24 h. Potency, µM (series often up to 57.1 µM), for inactives: top-dose activity change, negative = cytotoxicity, usual class: cytotoxic. actives 0.12% (n = 150,000). AID 1671193;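 note: potency is the fitted concentration of half-maximal effect; 0% = DMSO-treated cells and -100% = medium-only wells without cells; nearly all actives have a fitted effect of over 30% in size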
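Cytotoxicity counterscreen: after 24 h compound treatment of genome-edited SNCA-luciferase HEK-293 cells, live-cell protease substrate GF-AFC read by fluorescence after 30 min; activity scaled between DMSO (0%) and medium-only (-100%), curves Hill-fitted.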
HEK293 tox = HEK 293 cell cytotoxicity | HEK 293 viability, ATP luminescence (CellTiter-Glo), 48-72 h | Potency, µM (series often up to 115 µM), inactives show top-dose activity change, negative = cytotoxicity, hits mostly inhibitors | actives 6.6% (n = 94,000) | AID 1345083; note: potency is the fitted concentration of half-maximal effect; nearly all actives have a fitted effect of over 60% in size
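Read-out: CellTiter-Glo ATP luminescence. Cells: HEK 293, 250 cells/well. Exposure: 48 or 72 hr, 37 degree Celsius.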
Starred values were filed as active, the others as inactive; i = inactive; u = inconclusive; x = not tested or not shown; [ ] = another dose, or the depositor's remark. Unless noted, calls come from the whole dose curve; as a rule, active = well fitted curve in the direction sought with a large enough effect; inconclusive = small, poorly fitted or top-dose-only effect, or another doubt; inactive = no such curve, though single readings can be large; an effect the other way counts as inactive or inconclusive. Unless noted, % is set by controls: 0 for no effect and ±100 for the full control effect. These rows are one share of the data. The share of hits here may be higher or lower than overall.

Compound	3T3 cytotox	FLuc inh	IP6K1 inh	SNCA expr inh	HEK293 viab	HEK293 tox
O=C(CC[C@@H]1CNC(=O)[C@@H]2C[C@H](NC(=O)Nc3ccsc3)CN12)NCc1cccs1	-15%	11%	-8	21%	7%	-13%
O=C(Nc1ccccc1)N1CCN(C2CCNCC2)C(=O)C1	-23%	x	56	-11%	13%	-26%
Cn1cnc(S(=O)(=O)N2CCC(CC(=O)NCc3ccccc3)C2)c1 (configuration not stated)	i	3%	3	-16%	3%[12.5 µM]	-6%
Cc1n[nH]c(C)c1CNC(=O)C1Cn2cccc2C(=O)N1Cc1ccccc1 (configuration not stated)	0%	-8%	-3	48%[activator]	18%	-18%
CCc1noc([C@@H]2CC(F)(F)CN2)n1	i	-9%	4	-10%	2%	i
Cc1nc(C(=O)N2CCC(c3nnc(Cn4cccn4)n3C)CC2)cs1	-13%	-5%	20	-3%	1%	-17%
O=C(Nc1ccc2c(c1)CCC2)c1cc2c(s1)CN(C1CC1)C2	u	u	17	136%[activator]	-6%	u
CCC[C@H]1CN(Cc2c(C)noc2C)C[C@@H]1NC(=O)C1CCOCC1	i	-3%	5	-6%	0%	i
N#Cc1ccc(CN2CC(Oc3ccc(F)cc3F)C2)cc1	u	x	-14	-1%[87.6 µM]	-1%[87.6 µM]	u
Cc1cccc(OCCc2noc(C3CCCCN3S(=O)(=O)c3cn(C)cn3)n2)c1 (configuration not stated)	-14%	-10%	8	-17%	6%	u
O=C(Cc1ccccn1)NCCNC(=O)c1cccc(-c2ccsc2)c1	-19%[138 µM]	x	2	5%[87.6 µM]	8%[12.5 µM]	-30%[172 µM]
Cc1ccccc1C(=O)N1CCC2(CC1)OCC(C(=O)N1CCOCC1)N2C(=O)c1ccccc1 (configuration not stated)	-7%	0%	5	8%	9%	-5%
CN1[C@@H](CCC(=O)NCc2ccco2)CNC(=O)[C@@H]2[C@H]1CCN2Cc1ccccc1	-1%[174 µM]	-1%[172 µM]	-3	-7%[87.6 µM]	6%[87.6 µM]	i
O=C(c1ccn(C(F)F)n1)N1CCCC(c2ccccc2)(c2ccccc2)C1	u	1%	1	13%	4%	u
O=C1COc2ccc(S(=O)(=O)N3CCCn4nc(CO)cc4C3)cc2N1	-16%	2%	12	2%	4%	-3%
Cc1ccc(C(=O)N2CCNC(=O)C2Cc2ccccc2)c(F)c1 (configuration not stated)	-14%	-11%	1	6%	-5%	-7%
CCCn1ccc2sc(C)c(C(=O)N3CCN(C(C)C)CC3)c2c1=O	i	4%	22	-17%	3%	-3%
Cc1cccc(C(=O)N2C(C(=O)NC3CC3)COC23CCN(C(=O)Cc2ccccc2)CC3)c1 (configuration not stated)	-8%	-7%	5	21%	1%	-2%
CCn1ccc2oc(C)c(C(=O)N3CCN(c4cccc(C)c4C)CC3)c2c1=O	u	8%	15	41%	-5%	50µM*
COc1ccc(-c2ccc3nc(-c4ccccc4C)oc3c2)c(OC)c1OC	u	-27%	1	-1%	16%	u
Cc1nn(C)c(C)c1-c1nc2cc(S(=O)(=O)N3CCCC3)ccc2n1C	-9%	-1%	-5	-11%	5%	-3%
COCc1ccc(C(=O)N2CC[C@](C)(O)[C@H](C)C2)s1	-17%	7%	-1	-29%	4%	u
Cn1cccc1C(=O)NCC1Cn2cccc2C(=O)N1Cc1cccnc1 (configuration not stated)	-29%	x	-10	-6%	-23%	-17%
Cc1nc(N2CCN(C(=O)c3ccco3)CC2)c2c3c(sc2n1)CCCC3	x	x	8	x	-20%	x
COc1cccc(C(=O)NC2CCCN(c3cc(-c4ccccc4)[nH]n3)C2)c1OC (configuration not stated)	u	-24%	18	35%[activator]	-1%	u
CC(=O)c1cccc(NC(=O)O[C@@H]2CO[C@H]3[C@@H]2OC[C@@H]3Nc2nccc(-c3ccccc3)n2)c1	i	0%	1	5%	1%	i
CC(=O)N1CCNc2cc(Nc3ccc(F)cc3)ncc2C1	u	2.2µM*	-15	u	-12%[87.6 µM]	u
Nc1nc(CCCNC(=O)c2cn(C3CCC(N)CC3)nn2)cs1 (configuration not stated)	i	u	11	11%	-12%	1%
CC(C)c1cc(C(=O)N2CCCC(c3ccccc3)(c3ccccc3)C2)n(C)n1	u	10%	0	-23%	-14%	u
CC(C)S(=O)(=O)NC[C@H](C)c1ccc(-c2ccc(CCNS(C)(=O)=O)cc2)cc1	x	x	-4	x	-20%	x
O=C(CCC1CCN(S(=O)(=O)c2ccccc2F)CC1)NC1CCS(=O)(=O)C1 (configuration not stated)	-15%	-8%	31	8%	-2%	1%
O=C1CC2(CCN(Cc3cccc(OCc4ccccc4Cl)c3)CC2)CN1	u	u	8	98%[activator]	-1%	u
Cc1sc2ccn(Cc3ccc(F)cc3)c(=O)c2c1C(=O)NCc1cccs1	u	5%	4	3%	5%	u
Cc1ccsc1[C@@H]1CCN(C(=O)CCc2ccc(F)cc2F)C[C@H]1O	-10%	-5%	13	-8%	-2%	-19%
COCCNC(=O)N1CCC(c2cc(-c3ccc(F)cc3)n[nH]2)CC1	-14%	-4%	0	5%	-6%	7%
O=C(NC1CCCN(c2cc(-c3ccc(Cl)cc3)[nH]n2)C1)c1ccncc1 (configuration not stated)	u	13µM*	0	0%	-2%	40µM*
CCN(CC)C(=O)CC[C@@H]1CNC(=O)[C@@H]2C[C@H](NC(=O)Nc3ccccc3)CN12	-10%[174 µM]	-2%[172 µM]	8	15%[87.6 µM]	9%[87.6 µM]	0%[172 µM]
CNc1nc2c(s1)C[C@]1(C)CCC([C@H](C)C(=O)N3CCSCC3)[C@H](O)[C@H]1[C@@H]2C (some centres not stated)	-28%[174 µM]	u	-12	-2%[87.6 µM]	1%[87.6 µM]	u
COc1ccc(CN(C)C(=O)C2(c3ccc(Cl)cc3)CCOCC2)cc1	-26%	x	-15	28%	-11%	u
Cc1cc(C(F)(F)F)nn1CC(=O)NCCn1c(C)cnc1C1CCC1	-1%	0%	12	1%	2%	5%
CC(C)c1noc([C@@H]2C[C@H](NC(=O)c3ccc(F)cc3)CN2C)n1	0%[138 µM]	-12%[172 µM]	4	9%[87.6 µM]	-2%[87.6 µM]	4%[172 µM]
O=C(NCCN1CCOCC1)C1Cn2cccc2C(=O)N1Cc1ccccc1 (configuration not stated)	0%	-6%	2	-10%	-6%	2%
O=C(CC[C@@H]1CNC(=O)[C@@H]2C[C@H](NC(=O)Nc3ccccc3)CN12)Nc1ccccc1	3%[174 µM]	u	-4	8%[87.6 µM]	6%[87.6 µM]	-4%[172 µM]
CN(C)[C@@H]1[C@@H](NC(=O)Cc2noc3ccccc23)[C@H]2CCO[C@H]21	-18%	0%	9	4%	-1%	-1%
COc1ccc(C(=O)N2CCc3nc(OCC4CC4)ccc3C2)cn1	-7%	-9%	-2	-18%	3%[12.5 µM]	-27%
CN(CCc1ccccn1)[C@H]1[C@@H]2OC[C@@H](O2)[C@@H](NC(=O)Nc2cccc(C(F)(F)F)c2)[C@@H]1O	-8%	u	6	2%	-9%	-13%
COCCNc1ncnc2c1CN(C1CCCC1)C(=O)CN2C	u	x	13	-1%	-4%	-16%
CCO[C@H]1CN(C(=O)CCc2ccc(-c3ccccc3)cc2)C[C@@H]1O	-29%	u	-14	12%	3%	-16%
COc1ccccc1CNC(=O)c1noc(-c2ccc(C)cc2)n1	u	u	-6	7%	12%	u
O=C(c1ccncc1)N1CCN(C2CCNCC2)C(=O)C1	1%	x	17	-9%	-2%	0%

Whole records as entered above:
COc1ccc(CN(C)C(=O)C2(c3ccc(Cl)cc3)CCOCC2)cc1 is listed with 3T3 cytotox = -26%; FLuc inh = x; IP6K1 inh = -15; SNCA expr inh = 28%; HEK293 viab = -11%; HEK293 tox = u
CN(CCc1ccccn1)[C@H]1[C@@H]2OC[C@@H](O2)[C@@H](NC(=O)Nc2cccc(C(F)(F)F)c2)[C@@H]1O is listed with 3T3 cytotox = -8%; FLuc inh = u; IP6K1 inh = 6; SNCA expr inh = 2%; HEK293 viab = -9%; HEK293 tox = -13%

New compounds follow
Compound	3T3 cytotox	FLuc inh	IP6K1 inh	SNCA expr inh	HEK293 viab	HEK293 tox
COCCN1C(=O)c2cccn2CC1CNC(=O)CCCc1ccccc1 (configuration not stated)	-8%	3%	-3	2%	1%	0%
Cc1noc2c(-c3cccc(CO)c3)cc(-c3cccs3)nc12	45µM*	3%[172 µM]	3	-14%[87.6 µM]	-9%[87.6 µM]	100µM*
COc1ccc(-c2ccc3nc(-c4ccccc4Br)oc3c2)c(OC)c1OC	u	-26%	-16	17%	u	u
Cc1ncnc(N2CCC3(CC2)CC(=O)N(CCCc2ccccc2)C3)c1C	u	11%	14	-10%	-3%	u
Cn1ccc(C(=O)N2CCCC(CCc3ccccc3C(F)(F)F)C2)n1 (configuration not stated)	u	-8%	-3	u	-15%	32µM*
CCCc1cc(C(=O)N(C)CCOc2ccccc2CC)n(C)n1	40µM*	0%	-6	-25%	-22%	u
CC(=O)Oc1c(-c2ccc(NC(=O)C(C)C)cc2)c(-c2ccc(F)cc2)nn1-c1ccc(F)cc1	u	-22%	2	1%	6%	u
CN1CCNc2nc(COc3ccccc3OC(F)(F)F)n(Cc3ccccc3)c2C1=O	u	-7%	0	9%	-4%	u
CC(C)NC(=O)c1nc(-c2ccc([S+](C)(=O)[O-])cc2)c2ccccn12	u	x	0	-8%	1%	-20%
CC(C)Oc1ccc(CNC(=O)C2Cn3cccc3C(=O)N2Cc2cccnc2)cc1 (configuration not stated)	-4%	-1%	-10	-1%	-1%	u
Cc1nccn1CCC1CCN(C(=O)C2CC(=O)N(C3CC3)C2)CC1 (configuration not stated)	1%	-3%	-2	1%	4%	-24%
O=C(NC1CCCCCC1)c1ccc2c(c1)CC(=O)N2Cc1ccc(F)cc1	-26%	2%	-11	16%	-16%	u
COc1ccc(OC)c(CNC(=O)CC2C(=O)NCCN2CC=C(C)C)c1 (configuration not stated)	i	4%	8	-2%	2%	i
CC(C)CCN1CCCN(CCN(C)C)c2ccccc21	u	8%	-11	-25%	-6%	u
COC[C@@H]1[C@H](C(=O)Nc2ccc(OC)nc2)CCC(=O)N1C	u	-19%	0	1%	-1%	u
CS(=O)(=O)N1CCC2(CC1)CN(C(=O)c1ccc(Cl)cc1)CCO2	u	x	6	5%	-3%	-37%
COCCNC(=O)CC[C@]12CC[C@](C)(O)C[C@H]1C(C)(C)C[C@@H]2NS(=O)(=O)c1ccc(C)cc1	u	0%	-2	-21%	5%	-3%
Cc1ncc2c(c1CNC(=O)c1ccc3c(c1)OCO3)CCN(C(=O)c1ccc3ccccc3c1)C2	i	8%	-6	-7%	1%	-2%
N#Cc1ccccc1CN1CCNc2nc(CN3CCOCC3)n(Cc3ccccc3)c2C1=O	u	3%	-17	u	-1%	i
Cc1ccc(-c2nc(C(=O)NC(C)c3ccccc3)no2)cc1 (configuration not stated)	-22%	u	-17	83%[activator]	6%	-7%
Cc1noc(-c2cccc(F)c2)c1C(=O)NCCc1ccc(F)cc1	-17%	-4%	2	-3%	4%	-19%
CC(=O)N1CCN(Cc2ccc([C@H](C)Nc3nccc(N4C(=O)OC[C@@H]4C(C)C)n3)cc2)CC1	x	x	3	x	-3%	x
O=C(Nc1ccccc1)N[C@H]1C[C@H]2C(=O)NC[C@@H](CCC(=O)N3CCN(c4ccccc4)CC3)N2C1	-10%	-7%	17	14%	3%	-12%
COCCN1C(=O)N(CCCc2cccnc2)C(=O)C12CCN(C/C=C/c1ccc(OC)cc1)CC2	u	-7%	24	-17%	-12%	u
CN(CC1CCCN(CCc2ccc(Cl)cc2)C1)C(=O)c1ccc(-n2cnnn2)cc1 (configuration not stated)	u	-2%	11	2%	-5%	-19%
